# Assay outcomes from PubChem.
# Hsc70 ATP site: small molecules displacing fluorescent ligand from Hsc70 – biochemical, fluorescence polarization, primary screen (AID 568); Hsc70 fluorescence polarization, probe displacement; higher % means a stronger effect; strong numbers were not always called active; displacement, % at 20 µM, or IC50 in µM where a hit was titrated; 83,000 tested, under 10 active;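 active = displacement above 50% without optical interference and an IC50 on retest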;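 note: ATPase domain with a fluorescein-tagged ATP probe; 0% = vehicle and 100% = excess ADP; read after one hour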
# WNV NS2B-NS3 inh: WNV NS2B-NS3 proteinase inhibition; P06935; WNV NS2B-NS3 protease, fluorogenic substrate Ex360/Em465; hits give low values; z-score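 (tested at a level between 10 and 100 µM)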; 65,000 tested, 0.18% active;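 active = z-score at -3 or under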;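 note: score is relative to mean and spread of the compound wells of a plate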
# Target sequence (P06935 1371-1501 limits assumed): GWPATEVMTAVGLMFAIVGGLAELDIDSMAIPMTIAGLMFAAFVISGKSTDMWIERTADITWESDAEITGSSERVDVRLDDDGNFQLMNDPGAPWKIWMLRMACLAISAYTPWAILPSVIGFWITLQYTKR
# Target sequence (P06935 1502-1679 limits assumed): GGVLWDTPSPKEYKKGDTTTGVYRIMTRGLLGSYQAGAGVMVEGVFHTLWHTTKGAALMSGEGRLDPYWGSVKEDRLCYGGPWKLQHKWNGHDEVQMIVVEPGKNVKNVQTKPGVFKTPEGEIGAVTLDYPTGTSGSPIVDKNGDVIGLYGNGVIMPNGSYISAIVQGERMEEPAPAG
# MT1-MMP promoter: MT1-MMP gene expression reporter suppression – cell-based, luciferase reporter, luminescence (AID 618) | MT1-MMP promoter luciferase reporter cells, luminescence | 87,000 tested, 0.62% active | calls from a first round at 10 µM; hits with a dose series show EC50 in µM;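 active = over half of the reporter light lost at 10 µM or EC50 under 50 µM; inactive = the rest and hits that failed the dose series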;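 note: actives suppress MT1-MMP promoter-driven transcription so potencies describe inhibitors; HT1080 fibrosarcoma cells; overnight exposure; toxic or luciferase-blocking compounds were not removed from the actives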
# * = called active by the depositor; i = inactive; / = not tested or not shown. Only part of the results is shown (hit frequency here may not be typical).
# Sample of the layout (14 entries):
SMILES,Hsc70 ATP site,WNV NS2B-NS3 inh,MT1-MMP promoter
COC(=O)N1CC(C)N(C(=O)OC)CC1C (stereo not given),0.4%,-0.65,i
CCCSc1nnc(Sc2nnnn2-c2ccccc2)s1,-0.4%,-1.6,i
COc1ccccc1N/C(=N/c1nc(C)cc(C)n1)NC(C)=O,-0.5%,-0.57,i
CN1CCN(S(=O)(=O)c2ccc(-c3ccccc3)cc2)CC1,-8.7%,-1.3,i
O=C(NCCC1=CCCCC1)C1CCN(S(=O)(=O)c2cccs2)CC1,-3.7%,0.59,i
Cc1nc(SCC(=O)NCC2CCCO2)c2oc3ccccc3c2n1 (stereo not given),-0.7%,-0.83,i
O=C(Nn1cnnc1)c1cc2cc(Br)ccc2oc1=O,4.4%,-0.8,i
Cc1ccc(CN2CCN(C(=O)C3CCCO3)CC2)cc1 (stereo not given),7.0%,-0.38,i
CC(=O)C1=C(N2CCCCC2)CCC1=O,-6.8%,-0.39,i
CC1=C(C)CC(C(=O)NCc2ccc3c(c2)OCO3)C(C(=O)O)C1 (stereo not given),2.2%,/,i
O=C(CCNS(=O)(=O)c1ccc(Br)s1)NC1CCCC1,9.7%,0.87,i
COc1ccc(C)cc1NC(=O)CN(c1ccccc1)S(C)(=O)=O,3.3%,3.1,i
COc1ccc(-c2nc(CS(=O)CC(=O)N3CCc4ccccc4C3)c(C)o2)cc1 (stereo not given),0.9%,-0.39,i
COc1cccc(-n2nnc3c(=O)n(CC(=O)NCC4CCCO4)cnc32)c1 (stereo not given),-1.9%,0.34,i

# The whole of this part (from the top)
SMILES,Hsc70 ATP site,WNV NS2B-NS3 inh,MT1-MMP promoter
COC(=O)N1CC(C)N(C(=O)OC)CC1C (stereo not given),0.4%,-0.65,i
CCCSc1nnc(Sc2nnnn2-c2ccccc2)s1,-0.4%,-1.6,i
COc1ccccc1N/C(=N/c1nc(C)cc(C)n1)NC(C)=O,-0.5%,-0.57,i
CN1CCN(S(=O)(=O)c2ccc(-c3ccccc3)cc2)CC1,-8.7%,-1.3,i
O=C(NCCC1=CCCCC1)C1CCN(S(=O)(=O)c2cccs2)CC1,-3.7%,0.59,i
Cc1nc(SCC(=O)NCC2CCCO2)c2oc3ccccc3c2n1 (stereo not given),-0.7%,-0.83,i
O=C(Nn1cnnc1)c1cc2cc(Br)ccc2oc1=O,4.4%,-0.8,i
Cc1ccc(CN2CCN(C(=O)C3CCCO3)CC2)cc1 (stereo not given),7.0%,-0.38,i
CC(=O)C1=C(N2CCCCC2)CCC1=O,-6.8%,-0.39,i
CC1=C(C)CC(C(=O)NCc2ccc3c(c2)OCO3)C(C(=O)O)C1 (stereo not given),2.2%,/,i
O=C(CCNS(=O)(=O)c1ccc(Br)s1)NC1CCCC1,9.7%,0.87,i
COc1ccc(C)cc1NC(=O)CN(c1ccccc1)S(C)(=O)=O,3.3%,3.1,i
COc1ccc(-c2nc(CS(=O)CC(=O)N3CCc4ccccc4C3)c(C)o2)cc1 (stereo not given),0.9%,-0.39,i
COc1cccc(-n2nnc3c(=O)n(CC(=O)NCC4CCCO4)cnc32)c1 (stereo not given),-1.9%,0.34,i
CCOC(=O)C(Sc1nnc(-c2ccncc2)o1)C(C)=O (stereo not given),7.3%,/,i
O=c1oc2ccccc2c(Nc2cccc(O)c2)c1[N+](=O)[O-],-3.5%,/,i
COC(=O)C1CCCN1C(=O)c1cccs1 (stereo not given),1.9%,0.04,i
Nc1nc(N)c2nc(-c3ccccc3)c(N)nc2n1,0.1%,5.2,i
O=C(CCCc1ccccc1)Nc1nncs1,1.3%,/,i
Cn1c(C(=O)NCc2cccs2)cc2oc3ccccc3c21,-7.0%,1.3,i
O=C(Nc1cccnc1)c1cc2nc(C3CC3)cc(C(F)(F)F)n2n1,-1.9%,-0.74,i
Cc1[nH]c(=S)[nH]c(=O)c1CCOc1ccccc1,5.7%,-0.97,i
CCOC(=O)c1c(N)sc2c1CCC(CC)C2 (stereo not given),-3.5%,/,i
COc1ccccc1CN(Cc1nc2ccccc2c(=O)[nH]1)S(=O)(=O)c1ccc(C)cc1,3.5%,/,i
CCC(NS(=O)(=O)c1ccc(C)cc1)C(=O)Nc1ccc(NC(C)=O)cc1 (stereo not given),-5.1%,-0.84,i
CCOc1cc(N2CCOCC2)c(OCC)cc1NC(=O)COC(=O)CCc1c[nH]c2ccccc12,3.2%,-0.74,i
COc1ccc(NC(=O)C2CCN(C(=O)c3cccs3)CC2)cc1,-4.2%,/,i
COc1ccc(CNC(=O)C2CC(=O)N(c3ccc(OCC(=O)N4C(C)CCCC4C)cc3)C2)cc1 (stereo not given),-2.0%,0.72,i
CCOc1ccc(-n2cc(C(=O)N3CCCCCC3)c3cc(OC)c(OC)cc3c2=O)cc1,1.7%,-0.13,i
COc1cccc(C2C(C#N)=C(N)OC3=C2C(=O)CC(c2ccco2)C3)c1OCc1ccc(F)cc1 (stereo not given),-5.9%,1,i
Cc1ccc(N2CCn3c2nc2c3c(=O)n(CCc3ccccc3)c(=O)n2C)cc1,-0.7%,0.76,i
COc1ccc2c(c1)CCc1c(C(=O)NCCCn3ccnc3)noc1-2,1.9%,-0.41,i
COc1cc(CN2CCN(S(=O)(=O)c3ccc(F)cc3)CC2)cc(OC)c1OC,1.2%,-0.23,i
CCOc1cc(NC(=O)c2ccco2)c(OCC)cc1NC(=O)Cc1cccc(OC)c1,3.2%,0.5,i
O=C(COC(=O)CCCc1c[nH]c2ccccc12)Nc1ccc2c(c1)OCO2,9.0%,-0.11,i
Nc1c2c(nc3ccn(Cc4ccccc4)c(=O)c13)CCC2,3.8%,-0.17,i
Cc1cccc(C=Nc2ccccc2C(N)=O)c1,-5.2%,/,i
C=C(C)CSc1nnc2n(C)c(=O)c3c4c(sc3n12)CCC4,2.1%,0.87,i
N#Cc1c2c(c(-c3ccco3)[nH]c1=O)CCCC2,3.1%,-1.1,i
Nc1nc2nccc(-c3ccc(Cl)cc3)n2n1,3.7%,0.78,i
C/C(CC1(O)C(=O)N(C)c2ccccc21)=N\O (stereo not given),-4.6%,-0.52,i
O=C(O)c1ccc2c(c1)C(=O)N(Cc1ccc3c(c1)OCO3)C2=O,1.1%,/,i
CCCCNC(=O)OCCNC(=O)NC,-3.7%,-0.03,i
O=C(Nc1ccc(Br)cc1F)C1CCN(c2nnc(-n3cccc3)s2)CC1,1.6%,-0.64,i
N#CC1=C(SCC(=O)NC2CC2)NC(=O)C(C#N)C12CCCCC2 (stereo not given),-1.3%,-0.37,i
N#CC1=C(N)N=C(SCc2ccccc2)C(C(N)=O)C12CCCCC2 (stereo not given),4.0%,0.62,i
COc1ncnc2c1NC1=C(S2)C(=NCCC(=O)O)CC(C)(C)C1,24%,/,i
c1ccc(CSc2nnc(-c3cccs3)n2Cc2ccco2)cc1,-5.6%,-0.29,i
CC(C)(C)NC(=O)NC(=O)COC(=O)Cn1c(C(F)(F)F)nc2ccccc21,2.4%,1.1,i
Cc1cc(Br)cc2c1NC(=O)C2(c1c(C)n(C)n(-c2ccccc2)c1=O)c1c(C)n(C)n(-c2ccccc2)c1=O,2.7%,/,i
c1ccc(CNc2ccc3c(c2)ncn3C2CCCCC2)nc1,4.6%,-0.11,i
CCCn1c(SCC(=O)Nc2nonc2C)nnc1-c1ccoc1C,-9.2%,-0.26,i
CCCCOc1ccc(C(=O)NCc2ccco2)cc1,-2.6%,-0.92,i
COc1ccc(OC)c(C2C(C(=O)c3sc(C)nc3C)=C(O)C(=O)N2CCN2CCOCC2)c1 (stereo not given),-4.5%,1.1,i
O=C1NC(c2cccs2)C(C(=O)c2ccccc2)C(O)(C(F)(F)F)N1 (stereo not given),4.5%,1.2,i
COCCNC(=O)c1c[nH]c2cc(OC)c(OC)cc2c1=O,-1.1%,-0.72,i
O=C(Nc1ccc2c(c1)OCO2)c1cncc(Br)c1,4.5%,-0.4,i
CCOC(=O)C(C)c1n[nH]c(=O)c2ccccc12 (stereo not given),5.0%,0.35,i
CSc1cc(/C=N/O)c(SC)s1,1.1%,-0.05,i
Cn1c(C(=O)O)c(CC(=O)Nc2ccccc2F)c2ccccc21,-0.3%,1.2,i

# Other structures:
SMILES,Hsc70 ATP site,WNV NS2B-NS3 inh,MT1-MMP promoter
CCc1nccn1S(=O)(=O)c1ccc(C)c(C)c1,-0.2%,-1,i
O=C(c1ccco1)N1CCN(C(=O)c2ccccc2Oc2ccccc2)CC1,-0.7%,0.92,i
COc1ccc2c(C)nc(Nc3nc(C)cc(C)n3)nc2c1,-3.6%,0.11,i
CS(=O)(=O)N(CCc1ccccc1)CC(=O)NCc1cccnc1,0.3%,1.6,i
CCOC(=O)c1cc(OC(=O)c2cccs2)n(-c2ccccc2)n1,-1.1%,0.02,i
CCOC(=O)c1ccccc1NC(=O)CC1Nc2ccccc2NC1=O (stereo not given),-10%,2.5,i
COc1ccccc1C1/C(=C(\O)c2ccc3c(c2)OCCO3)C(=O)C(=O)N1CCCN(C)C (stereo not given),5.2%,0.16,i
CCN(CC)C(=O)CSc1nc2ccc(NC(=O)CSc3nccn3C)cc2s1,-5.6%,-0.77,i
CC(=O)c1ccc(N2CCN(C(=O)C3CCC3)CC2)cc1,7.8%,0.09,i
Cc1ccc(N2C(=O)C3C4C=CC(C4)C3C2=O)cc1C (stereo not given),-1.3%,1.4,i
Cc1cc(O)cc(O)c1C(=O)Cc1cscn1,1.3%,-0.01,i
Cc1ncsc1CCOC(=O)c1cccnc1,3.9%,-0.86,i
CCN1C(=O)C2C(c3cccc(F)c3)NC(CC)(C(=O)OC)C2C1=O (stereo not given),-0.1%,0.16,i
COc1cccc(NC(=O)N(CCCN2CCOCC2)C(C)c2cc3ccccc3o2)c1 (stereo not given),0.6%,/,i
CCN(CC)C(=O)Oc1ccc2c(=O)c(-c3ccccc3)coc2c1,-4.9%,-0.27,i
CCC1(CC)C(=O)N=C2c3ccccc3C(=O)N21,-1.2%,-1.4,i
O=C(O)CCCCCN1C(=O)C(=O)/C(=C(/O)c2ccccc2)C1c1ccccc1 (stereo not given),-1.4%,-1.1,i
CC1=C(C(=O)Nc2ccccc2)C(c2ccncc2)C(C#N)=C(SCC(=O)NC(C)C)N1 (stereo not given),0.7%,0.0083,i
O=C(O)C1C2C=CC(C3CC23)C1C(=O)NCCc1ccccc1 (stereo not given),-0.2%,-0.01,i
Cc1ccc(N2CC(C(=O)Nc3cc(C)ccc3F)CC2=O)cc1 (stereo not given),-1.6%,-0.6,i

# Random excerpt: 2 compounds from above.
SMILES,Hsc70 ATP site,WNV NS2B-NS3 inh,MT1-MMP promoter
O=C(c1ccco1)N1CCN(C(=O)c2ccccc2Oc2ccccc2)CC1,-0.7%,0.92,i
CCC1(CC)C(=O)N=C2c3ccccc3C(=O)N21,-1.2%,-1.4,i

# (next part)
SMILES,Hsc70 ATP site,WNV NS2B-NS3 inh,MT1-MMP promoter
O=C(Nc1ccc2c(c1)OCO2)c1c(F)cccc1F,0.2%,2.4,i
CCc1cc(C(=O)Nc2ccccc2)cs1,1.3%,-0.92,i
COc1ccc(-c2nnc3sc(COc4ccc(C)cc4)nn23)cc1,0.5%,-0.09,i
Cc1nc2sc3c(c2c2nc(-c4ccco4)nn12)CC(C)(C)OC3,4.0%,-0.74,i
O=C(Nc1ccc(S(=O)(=O)N2CCC(C(=O)NC3CCCCC3)CC2)cc1)c1ccco1,-1.1%,0.2,i
COc1ccc(-n2c3c(cc(C(=O)N4CCC(C)CC4)c2=O)C(=O)CC(C)(C)C3)cc1,3.5%,-0.81,i
N#CC1=C(N)Oc2n[nH]c(-c3cccs3)c2C1C1C=CCCC1 (stereo not given),-1.6%,/,i
COc1ccc(CCNC(=O)C2CCN(S(=O)(=O)c3cnc[nH]3)CC2)cc1OC,-4.2%,1.2,i
COC(=O)c1ccc(OCC(O)CN2CCC(C)CC2)cc1 (stereo not given),1.9%,-0.27,i
CCCOc1ccc(S(=O)(=O)NCc2ccc(OC)cc2)cc1,0.7%,-0.23,i
CC(C)(C)OC(=O)N1CCC[C@H]1c1nnc(SCc2c(F)cccc2Cl)o1,2.5%,0.52,i
Cc1cc(NC(=O)c2ccccc2)sc1C,-12%,-0.66,i
COc1ccc(C(=O)Cn2c(N3CCCCC3)nc3c2c(=O)n(C)c(=O)n3C)cc1OC,-0.1%,-0.24,i
CCn1c(CNc2ccc(C)cc2)nnc1SCC(=O)NCc1ccccc1,-4.3%,0.48,i
COC(=O)C(O)(CC(=O)c1ccc(OC)cc1)C(F)(F)F (stereo not given),-2.0%,0.94,i
CC1CCN(S(=O)(=O)c2ccc(NC(=O)Cn3nnc(-c4ccccc4F)n3)cc2)CC1,-0.2%,0.01,i
CCC(=O)Nc1nc(OC)cc(OC)n1,0.9%,2.1,i
CCN(CC)CCNc1ccnc2cc(Cl)ccc12,-4.6%,-1.3,i
O=C(CN1C(=O)NC2(CCCc3ccccc32)C1=O)N1CCc2ccccc2C1 (stereo not given),4.6%,1.4,i
COC(=O)c1ccc2c(c1)N(Cc1nc(-c3cccc(Cl)c3)oc1C)C(=O)C1CCCN21 (stereo not given),-15%,0.35,i
CC1Cc2ccccc2N1C(=O)CSc1ncccc1C(=O)O (stereo not given),-2.2%,-1.1,i
O=C(Nc1ccccc1)NC1(C(=O)NCCCN2CCOCC2)CCCCC1,-1.1%,1.7,i
O=C1CC(Nc2ccc(N3CCOCC3)cc2)C(=O)N1c1ccccc1 (stereo not given),-3.4%,/,i
CCN(CC)S(=O)(=O)c1ccc(-n2cnnn2)c(C)c1,-1.1%,/,i
Cc1nc2ccccn2c1C(=O)Nc1ccc2c(c1)OCCO2,5.6%,/,i
CCOC(=O)c1c(C(F)(F)C(F)(F)C(F)(F)C(F)(F)F)n[nH]c1C,-5.9%,-1.1,i
